# Source: PubChem (National Center for Advancing Translational Sciences (NCATS))
# Eya2 inh: qHTS Assay for Inhibitors of the Phosphatase Activity of Eya2 | Protein phosphatase EYA2 (Homo sapiens), O00167 | recombinant Eya2, OMFP fluorescence dephosphorylation (OMFP is methylfluorescein phosphate) | Potency, µM (highest dose often 76.9 µM), inactives show at the top dose activity, negative = inhibition, most hits filed as inhibitors | actives 0.006% (n = 330,000) | AID 488837, 2010; note: potency is the fitted concentration of half-maximal effect
# Target sequence (O00167 whole entry, looked up): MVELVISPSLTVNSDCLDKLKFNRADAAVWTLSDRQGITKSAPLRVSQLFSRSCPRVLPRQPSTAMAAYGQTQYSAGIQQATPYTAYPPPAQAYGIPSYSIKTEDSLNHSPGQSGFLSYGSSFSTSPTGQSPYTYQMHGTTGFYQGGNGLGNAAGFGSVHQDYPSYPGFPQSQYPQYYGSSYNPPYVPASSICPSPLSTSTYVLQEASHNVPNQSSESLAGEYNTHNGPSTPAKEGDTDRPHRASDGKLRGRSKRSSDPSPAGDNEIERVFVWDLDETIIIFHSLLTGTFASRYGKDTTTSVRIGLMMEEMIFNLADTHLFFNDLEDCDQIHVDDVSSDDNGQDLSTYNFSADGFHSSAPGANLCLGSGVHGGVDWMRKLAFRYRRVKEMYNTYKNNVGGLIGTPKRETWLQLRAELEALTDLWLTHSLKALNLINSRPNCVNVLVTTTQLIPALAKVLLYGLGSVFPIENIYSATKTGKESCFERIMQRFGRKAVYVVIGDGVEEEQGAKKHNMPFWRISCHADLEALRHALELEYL
#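 Eya2 (0.2 uM) preincubated 10 min at ambient with compound, then OMFP substrate added at 50 uM; 10 min reaction in 50 mM HEPES pH 7.5, 50 mM NaCl, 5 uM MgCl2, 0.05% BSA, 1 mM DTT. Fluorescence read at Ex 485/Em 525 nm.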
# FBPA coupling cs: qHTS Assay for Inhibitors of Fructose-1,6-bisphosphate Aldolase from Giardia Lamblia: Coupling assay counterscreen | AID 2472, 2010 | actives 0.67% (n = 290,000) | activity change, negative = inhibition, % at 58.2 µM, hits read low | coupling enzyme system counterscreen, AmpLite Red fluorescence; in the data active = activity change below about -30%
#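 First, compound is pin-transferred into glyceraldehyde-3-phosphate coupling-enzyme reagent at 57.5 uM final and held 10 min at RT. Next, substrate, coupling system and AmpLite Red are added. After 20 min RT, fluorescence (525/598 nm) is read.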
# Giardia killer: Small Molecules that selectively kill Giardia lamblia: qHTS | Giardia lamblia trophozoite viability | activity change, % at 7.66 µM, hits read low | actives 0.15% (n = 340,000) | AID 540267, 2011; in the data active = activity change below about -80%; inconclusive = between about -30% and that limit;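 note: parasites exposed to compound for two days anaerobically before the ATP read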
#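 Trophozoite viability was measured as ATP-dependent luminescence, read 15-30 min after reagent addition. Before that, parasites at 100 cells/well were exposed to compounds for 48 h, anaerobically, at 37 deg C.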
# BCR signal inh: qHTS Assay to Find Inhibitors of Chronic Active B-Cell Receptor Signaling | ABC-DLBCL IkBa-CBG/CBR reporter, luminescence ratio, 4 h | Potency, µM (doses to about 46.1 µM), inactives show at the top dose ratio change, negative = lower green/red ratio, usual class: inhibitors | actives 0.05% (n = 340,000) | AID 493014, 2011; active = well fitted inhibition curve with a large enough effect in the signal ratio, with a control signal flat, not every such curve was filed as active; inconclusive = small, poorly fitted or top-dose-only effect, or effect the other way, or a change in a side signal; the % refers to the signal ratio;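 note: potency is the fitted concentration of half-maximal effect; plate controls were basal doxycycline-induced cells for no effect and cells given 10 µM MG132 for full effect; MG132 reads +100%, hits lower the ratio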
#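 Compounds up to 46 uM were incubated four hours with TMD8 cells whose green CBG68 luciferase is fused to IkappaBalpha; red CBR luminescence normalised the signal, and concentration-effect curves were fitted to fusion, red and ratio data.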
# USP2a block: qHTS Assay for Inhibitors of Ubiquitin-specific Protease USP2a Using CHOP2 as the Reporter; USP2 core, Ub-CHOP2 coupled fluorogenic reporter, 485/531; actives 0.01% (n = 330,000); Potency, µM (series often up to 38.3 µM), for inactives: at the highest dose activity change, negative = inhibition, actives largely listed as inhibitors; Ubiquitin carboxyl-terminal hydrolase 2 (Homo sapiens), O75604;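 note: potency is the fitted concentration of half-maximal effect; plate controls were DMSO wells for no effect and full inhibition by NEM control for full effect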
#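 USP2 core (10nM final) preincubated 30min RT with compound in 20mM Tris-HCl pH 8.0, 2mM CaCl2, 2mM beta-mercaptoethanol, 0.05% CHAPS; 25nM Ub-CHOP2 plus 25nM reporter substrate added, fluorescence (Ex485/Em531) read after 60min.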
# PKM2 activator: qHTS Assay for Activators of Human Muscle isoform 2 Pyruvate Kinase | Pyruvate kinase PKM (Homo sapiens), P14618 | purified PKM2, Kinase-Glo ATP luminescence, activation; response scale: 0% is enzyme alone, no compound | Potency, µM (titrated, usually from 57.5 µM), without a hit: at the highest dose activation, most hits filed as activators | actives 0.34% (n = 260,000) | AID 1631, 2009; note: potency is the fitted concentration of half-maximal effect; nearly all actives have a fitted effect of over 55% in size
#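 Purified hPK-M2 (>95% pure) converted ADP (0.1 mM final) to ATP with 0.5 mM PEP in 50 mM imidazole pH7.2, KCl, MgCl2, Tween 20, BSA; 1 h at room temperature. ATP detected by Kinase-Glo luminescence.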
# * hit, by the source's call; ? = inconclusive; nt = not tested or not shown; & = joins results of further samples. Unless noted, calls come from the whole dose curve; as a rule, active = well fitted curve in the direction sought with a large enough effect; inconclusive = small, poorly fitted or top-dose-only effect, or another doubt; inactive = no such curve, though single readings can be large; an effect the other way counts as inactive or inconclusive. Unless noted, % is set by controls: 0 for no effect and ±100 for the full control effect.
# Letter code – A = Eya2 inh; B = FBPA coupling cs; C = Giardia killer; D = BCR signal inh; E = USP2a block; F = PKM2 activator
Cn1c(=O)c2c(ncn2C)n(C)c1=O
  A: -1%&8%; B: 1&0&0&4; C: -26; D: 10%; E: -1%; F: -11%
Oc1ccc(-c2nc3ccccc3nc2-c2ccc(O)cc2O)c(O)c1
  A: nt; B: nt; C: -12; D: nt; E: nt; F: nt
CC(=O)OCC(=O)[C@@]12OC(C)(C)O[C@@H]1CC1C3C[C@H](F)C4=CC(=O)C=CC4(C)[C@@]3(F)C(O)CC12C (stereo partly specified)
  A: -4%; B: nt; C: 20; D: ?; E: 3%; F: nt
COc1ccc(-c2cn[nH]c2-c2ccc(OC)cc2)cc1
  A: -7%; B: -1; C: 5; D: ?; E: 2%; F: nt
CC(C)NCC(O)COc1cccc2ccccc12 (stereo unspecified)
  A: 0%&-19%; B: 3&-1&0; C: 7; D: -4%; E: -1%; F: -5%
Nc1ccn([C@@H]2O[C@H](CO)[C@@H](O)C2O)c(=O)n1 (stereo partly specified)
  A: 0%&-18%; B: 4&0; C: -13; D: -9%; E: 4%; F: 3%
NC(N)=NC(=O)c1nc(Cl)c(N)nc1N
  A: 2%&-3%; B: 1&1&5&-1; C: 6&7&2; D: ?; E: 2%; F: 1%
Cc1cc(C(=O)N[C@@H](c2ccccc2)[C@]2(C)C[C@H]2[C@@H](C)C(=O)Nc2ccc3ccccc3c2)no1
  A: 4%; B: -3&0; C: 5; D: 2%; E: -8%; F: -4%&-4%
NC(CCC(=O)NC(CS)C(=O)NCC(=O)O)C(=O)O (stereo unspecified)
  A: nt; B: nt; C: -19; D: nt; E: nt; F: nt
O=C(c1ccc(NS(=O)(=O)c2ccccc2)cc1)N1CCN(c2ccccc2)CC1
  A: -2%; B: nt; C: nt; D: nt; E: -1%; F: nt
CN=C(NC#N)NCCSCc1nc[nH]c1C
  A: -9%&-3%; B: -1&2&1&1; C: 12; D: 2%; E: 4%; F: 2%
O=C1CCCC2=C1C1(CCCC1)N=C(Nc1nc3ccccc3o1)N2
  A: 1%; B: 1; C: nt; D: ?; E: 1%; F: 1%

# An excerpt, so the mix of outcomes need not match the whole.
